# CapD inh = Bacillus anthracis CapD inhibitors, primary screen, biochemical, fluorescence intensity | 140,000 tested, 0.23% active | CapD gamma-glutamyltranspeptidase (Bacillus anthracis Ames Ancestor) | purified CapD enzyme, fluorescence intensity read-out; stronger effect = lower value; some hits fall short of the stated cut | z-score (test concentration not listed) | AID 492967, 2010;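 active = z-score under -4 in either of two replicates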;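 note: stock transfer was 100 nL into about 40 µL; score is relative to mean and spread of the plate; one replicate is shown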
# AID504770 = growth inhibition of E. coli YBA685, primary screen, V. cholerae RctB inhibitors; z-score (no concentration beside the values); 130,000 tested, 0.27% active; E. coli YBA685 rctB-dependent plasmid, OD600 growth, 3 h; stronger effect = lower value;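 active = z-score under -2 on both plates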;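 note: wells of about 30 µL received 100 nL stock; score is relative to mean and SD of the test wells; the first replicate is given; strong numbers were not always called active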
# Active calls of the source: *; x = not tested or not shown; & = joins results of further samples.
SMILES,CapD inh,AID504770
CC(=O)Nc1ccc2c(c1)ncn2C(C)(C)C,x,-0.35
O=C(NCc1ccc2c(c1)OCO2)c1ccc(CS(=O)(=O)c2cccc(C(F)(F)F)c2)o1,-0.625,-0.5
O=C(c1cc(-c2ccc(O)cc2)on1)N1CCc2ccccc2C1,-0.685,-0.5
CCOC(=O)c1c(NC(=O)c2cnn3c2NC(c2ccc4c(c2)OCO4)CC3C(F)(F)F)sc2c1CCC2 (stereo not drawn),6.11,x
Cc1cc(NCCO)nc(-c2ccc(Br)cc2)n1,0.09,0.75
O=C(CCN1c2ccccc2Sc2ccccc21)NC1=NCCS1,x,0.1
O=C(NCCN1CCOCC1)c1cc2n(n1)CCCN(Cc1ccc(Cl)cc1)C2=O,0.67,0.05
CCN(CC)OC(=O)Nc1c(-c2c(Cl)cccc2Cl)noc1C,0.355,1.55
COc1ccc(C=Nc2cc(C(F)(F)F)ccc2-n2ccnc2)cc1,-2,-0.65
Cc1ccc2cnn(CC(=O)NC3CCCCC3)c2c1,-0.105,0.85
O=C(O)CCCn1cc(NC(=O)c2ccc(Cl)cc2)cn1,-0.405,2.4
COc1ccc(C2CC(=O)C3=C(C2)Nc2ccccc2NC3c2cc(OC)c(OC)cc2OC)cc1OC (stereo not drawn),-0.72,x
O=C(CSc1ncc(C(F)(F)F)cc1Cl)N1CCN(S(=O)(=O)c2ccccc2)CC1,x,-0.25
COc1cc(C(=O)NNC(=O)CNC(=O)c2ccccc2)nc2ccccc12,0.71,x
O=C1CC(c2ccco2)CC2=C1C(c1ccco1)N(C(=O)C(F)(F)F)c1ccccc1N2 (stereo not drawn),-0.05,-0.05
O=C(NCc1ccncc1)OCc1ccccc1OC(F)(F)F,0.48,x
O=C(OCc1cc(-c2ccccc2Cl)on1)c1cccc(C(F)(F)F)c1,0.335,x
O=C1NC(=O)/C(=C/C(=O)N2CCN(C(=O)/C=C3\SC(=O)NC3=O)CC2)S1,-2.06,0.05
COc1cccc(C(=O)N2N=C(c3cccc([N+](=O)[O-])c3)CC2(O)C(F)(F)F)c1 (stereo not drawn),-0.975,x
CC1(C(=O)O)CCC(C(=O)NNc2ncnc3ccccc23)C1(C)C (stereo not drawn),x,-0.65
c1csc(CN2CCNCC2)c1,0.19,-0.1
CN(CC(=O)NC1CC1)c1ccccc1,x,-0.6
O=[N+]([O-])c1ccc(C2CCCC/C2=N/OCc2ccc(F)cc2)c([N+](=O)[O-])c1 (stereo not drawn),-0.7,x
COCCCNC(=S)N/N=C/c1ccccc1O,-0.495,x
Cc1cc2c(cc1S(=O)(=O)NCC1CCCO1)OCC(=O)N2 (stereo not drawn),2.62,-2.45
COc1cc(/C=N/NC(=O)c2cc(Br)ccc2Cl)cc(Br)c1OC,-0.875,x
Cc1ccc(N/C=C/c2nc(SCc3ccc(Cl)cc3)nnc2C)cc1,5.85,x
CC(C)C(NC(=O)c1ccc(F)cc1)C(=O)Nc1cccnc1 (stereo not drawn),x,-0.6
CC(C)c1ccc(OCC(=O)N2CCC(C(N)=O)CC2)cc1,0.11,-0.3
C=C(C)Cn1c(Cc2ccccc2)nc2ccccc21,0.865,-0.6
O=C(NCCCN1CCOCC1)c1cn(-c2ccccc2)nc1-c1ccccc1,0.36,-0.6
O=C(ON1C(=O)CN(C(=O)c2ccco2)C1c1ccccc1)c1ccco1 (stereo not drawn),6.27,x
Cc1cc2[nH]c(=O)c(=O)[nH]c2cc1S(=O)(=O)N1CCC(C)CC1,67.3,-0.45
Cc1oc2cc(O)ccc2c(=O)c1-c1nc2ccccc2[nH]1,0.505,-0.6
N#Cc1ccc(C(=O)Nc2sc3c(c2C#N)CCC3)cc1,-0.44,-0.5
CCC(=O)Nc1ccc(N2CCN(C)CC2)c(Cl)c1,0.195,-0.9
CCC1CCC2(CC1)NC(=S)N(c1ccc(Cl)cc1)N2 (stereo not drawn),0.06,x
Clc1ccc(C2NCCc3sccc32)cc1 (stereo not drawn),0.665,x
COc1ccccc1N(C(C)=O)S(=O)(=O)c1ccc(Cl)cc1,-4.7*,-0.85
COc1ccc(-n2ncc(NC(=O)N3CCOCC3)c2C)cc1,-1.29,-0.75
COC(=O)Cc1nc(-c2ccc(Cl)cc2)sc1C,21.4,-0.6
COc1cccc(CC(NC(C)=O)C(=O)NC2CCN(C(=O)C3CC3)CC2)c1OC (stereo not drawn),x,0.45
Cc1cc(C(=O)OCC#N)c2ccccc2n1,x,-2.8
NC(=O)Cc1ccc2sc(-c3ccccc3)nc2c1,x,-2.85
COc1ccc(N=c2ssc3c2-c2cc(OC)ccc2NC3(C)C)c(OC)c1,-0.68,x

# Whole records as entered above.
# O=C(NCCCN1CCOCC1)c1cn(-c2ccccc2)nc1-c1ccccc1 as listed: CapD inh = 0.36; AID504770 = -0.6
# COc1ccc(N=c2ssc3c2-c2cc(OC)ccc2NC3(C)C)c(OC)c1 as listed: CapD inh = -0.68; AID504770 = x
# Cc1cc2[nH]c(=O)c(=O)[nH]c2cc1S(=O)(=O)N1CCC(C)CC1 as listed: CapD inh = 67.3; AID504770 = -0.45

# 2 compounds picked at random from the list so far, as already listed:
SMILES,CapD inh,AID504770
Clc1ccc(C2NCCc3sccc32)cc1 (stereo not drawn),0.665,x
COC(=O)Cc1nc(-c2ccc(Cl)cc2)sc1C,21.4,-0.6

# Additional compounds follow:
SMILES,CapD inh,AID504770
Cc1ccc(-c2noc(CN(C3CCCCC3)S(=O)(=O)c3ccccc3)n2)cc1,-0.55,1.15
CC1(C)CC(=O)C2=C(C1)OC(N)=C(C#N)C2C1CCN(C(=O)OCc2ccccc2)CC1 (stereo not drawn),-0.425,x
Cc1oc(-c2ccccc2)cc1C(=O)Nc1cccc(/C=C\C(=O)O)c1,-0.105,-0.9
O=S(=O)(Nc1nc2ccc(F)cc2s1)c1ccc(F)cc1F,x,-0.1
Cn1cc[nH]c1=S,-0.04&-0.39,0.05
FC(F)(F)c1ccn(Cc2n[nH]c(=S)o2)n1,x,-0.45
Cc1ccc(C2=CC(=O)C=CC2=O)cc1,0.045,1.55
N#CC(C#N)=C(Nc1ccccc1)c1ccccc1,-1.09,0.6
O=C(c1ccco1)N1CCN(Cc2ccccc2Br)CC1,-0.385,-0.15
CCCCC(=O)c1c(C)cc(C)[nH]c1=O,2.45,-0.6
N#CC1=C(N)OC2=C(C(=O)CC(c3ccccc3)C2)C1c1ccccc1C(F)(F)F (stereo not drawn),-0.745,x
Cc1cc(-c2ccccc2)nc(-c2ccccc2)c1C,0.435,0.15
COc1c(C(=O)NNC(=O)c2ccco2)cnc2c1c(C)nn2C,-0.98,x
CC1(C)CC(=O)c2cc(-c3ccccc3)n(CC(=O)OCC(=O)c3ccccc3)c2C1,-0.02,x
Cc1ccc(C)c(NC(=O)CN(C)C(=O)CC2OC(=O)c3ccccc32)c1 (stereo not drawn),x,-0.9
CC(C)N(C(=O)CCCN1C(=O)c2ccccc2C1=O)c1ccccc1,x,-0.3
CC(C)CC(C(=O)n1nnc2ccccc21)N1C(=O)c2ccccc2C1=O (stereo not drawn),x,2.45
Cc1ccc2c(COC(=O)C3=COCCO3)cc(=O)oc2c1,x,-0.45
COc1ccc(C2CC(=O)N(CC(=O)NC3CCCCC3)c3ccccc3S2)cc1OC (stereo not drawn),0.125,-1.25
COCC1CCCN1S(=O)(=O)c1c(C)cccc1Cl (stereo not drawn),-0.695,x
O=C(CSc1nnc(-c2c[nH]c3ccccc23)o1)NCCC1=CCCCC1,x,0.25
CCC(C)c1ccc(NC(=O)CSc2nc(N)cc(=O)[nH]2)cc1 (stereo not drawn),x,0.05
COc1cccc(C(=O)N=c2sc3cc(S(C)(=O)=O)ccc3n2C)c1,2.57,-0.3
COc1ccc(Nc2c(C(=O)N3CC(=O)Nc4ccccc43)cc([N+](=O)[O-])cc2[N+](=O)[O-])cc1,-0.705,x
NC(=O)Cn1cnc2sc3c(c2c1=O)CCC3,-1.65,-0.25
Cc1nnsc1-c1c(C(=O)Oc2ccccc2)c(C)nn1-c1ccccc1,0.1,-0.15
Nc1nc2ncc(CNc3ccc(C(=O)N[C@H](CCC(=O)O)C(=O)O)cc3)nc2c(=O)[nH]1,-0.425,x
Cc1ccccc1Nc1nc(N)nc(CN2CC(C)OC(C)C2)n1 (stereo not drawn),x,0
CC(C)c1ccc(/C=C2\N=C(c3ccccc3)OC2=O)cc1,0.5,x
O=C(COC(=O)C1CC2CCCC(C1)C2=O)NCc1cccs1 (stereo not drawn),x,-1.1
Cc1nc(SCC(=O)O)c2oc3ccccc3c2n1,-0.47,-0.6
CCCn1c(C(C)NC(=O)c2ccccc2)nc2ccccc21 (stereo not drawn),0.265,-0.85
COc1cc(/C=C2\CCC/C(=C\c3cc(OC)c(OC)c(OC)c3)C2=O)cc(OC)c1OC,-0.275,x
Cc1ccc(C(CC(=O)NCCCN2CCCC2)N2Cc3ccccc3C2=O)cc1 (stereo not drawn),-0.06,0
Nc1sccc1C(=O)c1ccccc1,x,-0.45
O=C(NNc1nc(CN2CCOCC2)nc2scc(-c3ccccc3)c12)c1cccc(S(=O)(=O)N2CCOCC2)c1,x,-0.2
CCn1nc(C)c(NC(=O)c2ccc(Cl)cc2)c1C(=O)OC,-0.36,1.5
COC(=O)C1=C(C(=O)c2ccccc2)C(c2ccccc2)n2nnnc2N1 (stereo not drawn),-1,2.1
COc1ccccc1C(=O)NNC(=O)C1CCN(c2ccc(C(F)(F)F)cn2)CC1,5.45,x
Cc1cc(-c2ccccc2)n2ncnc2n1,20.2,0.7
O=C(Nc1ccc(-c2cnco2)cc1)c1ccccc1,-0.825,2.55
O=C(Cn1c(=O)c2sccc2n(CC(=O)Nc2cccc(F)c2)c1=O)NCCc1ccccc1,0.46,0.7
COc1ccc(-c2noc(COC(=O)C3(c4ccc(Cl)cc4)CCC3)n2)c(OC)c1,x,-2.1
CCc1ccc(NC(=O)Nc2nnc(N3CCCC3)s2)cc1,0.905,-0.2
Cc1c(CC(Cl)(Cl)Cl)c2c(n1-c1ccc(F)c([N+](=O)[O-])c1)CC(C)(C)CC2=O,-0.025,x

# Next section (seven carried over from the part before).
SMILES,CapD inh,AID504770
COc1ccccc1C(=O)NNC(=O)C1CCN(c2ccc(C(F)(F)F)cn2)CC1,5.45,x
Cc1cc(-c2ccccc2)n2ncnc2n1,20.2,0.7
O=C(Nc1ccc(-c2cnco2)cc1)c1ccccc1,-0.825,2.55
O=C(Cn1c(=O)c2sccc2n(CC(=O)Nc2cccc(F)c2)c1=O)NCCc1ccccc1,0.46,0.7
COc1ccc(-c2noc(COC(=O)C3(c4ccc(Cl)cc4)CCC3)n2)c(OC)c1,x,-2.1
CCc1ccc(NC(=O)Nc2nnc(N3CCCC3)s2)cc1,0.905,-0.2
Cc1c(CC(Cl)(Cl)Cl)c2c(n1-c1ccc(F)c([N+](=O)[O-])c1)CC(C)(C)CC2=O,-0.025,x
Cn1c(CC#N)n[nH]c1=S,-0.545,-0.35
CCOC(=O)c1c(CSc2ccc(C)cc2)n(C)c2cc(Br)c(O)c(CN(C)C)c12,-1.46,2.25
CC1CC(C)CN(C(=O)c2ccc(Cl)cc2)C1 (stereo not drawn),x,-0.75
O=C(NCCC(=O)N1CCN(c2cccc(Cl)c2)CC1)NC12CC3CC(CC(C3)C1)C2,x,-0.2
Cn1c2c(c3ccccc31)/C(=N/OC(=O)c1ccc(C(C)(C)C)cc1)CCC2,0.355,x
FC(F)(F)c1cc(-c2ccc(Cl)cc2)n[nH]1,0.36,-0.3
COc1ccc(N2C(=O)/C(=C/c3ccc(-c4ccc([N+](=O)[O-])cc4)o3)C=C2c2ccccc2)cc1,-1.1,x
CC(=O)NC1=C(c2ccc(Br)cc2)C(=O)c2ccccc2C1=O,0.495,0.3
O=C(NCCc1ccccc1)c1sc(=S)n2c1[nH]c(=O)c1ccccc12,2.79,0
COc1cc(C)nc(N(CCC(C)C)S(=O)(=O)c2ccc(C)cc2)n1,-0.055,x
O=C1NC(=O)/C(=C\c2ccc(OCc3cnc(Cl)s3)cc2)S1,0.035,x
COC(=O)c1ccc(CN2CCCC(C)C2)cc1 (stereo not drawn),0.76,0.3
O=C(NCc1ccc(-c2csnn2)cc1)OCC1CCCCN1Cc1cccnc1 (stereo not drawn),-0.02,x
CN(C)/C=C1/Sc2ccccc2C1=O,-3.7,-0.75
CC12CCC(C1)C(C)(C)C2NCC(=O)N(c1ccccc1)C1CCCCC1 (stereo not drawn),0.175,x
S=c1[nH]nc(-c2ccccc2)n1C1CCCC1,0.09,-0.8
CC(=O)N1CCN(/C(C)=C\C(=O)C(F)(F)F)CC1,x,-0.05
COC(=O)c1cc2sc(Cl)cc2n1CC(=O)N(C)c1ccccc1,-0.135,0.4
COc1ccc(C2CC(=O)C3=C(C2)Nc2ccccc2NC3c2ccc(F)c(Br)c2)cc1OC (stereo not drawn),-0.62,x
O=C(c1ccccc1)N1CCN(C(=O)c2cc3ccccc3oc2=O)CC1,x,-0.65
CCOC(=O)c1c(NC(=O)C23CC4CC(CC(C4)C2)C3)sc(C(=O)Nc2ccccc2F)c1C,1.52,x
C(=N\c1nnc2nc[nH]n12)/c1ccco1,-0.8,-0.5
COc1ccc(C2C(C#N)=C(N)OC3=C2C(=O)CC(C)(C)C3)cc1Cn1nc([N+](=O)[O-])c(Br)c1C (stereo not drawn),-0.335,x
CCOc1ccc(Cn2nnc(-c3ccc(S(C)(=O)=O)cc3)n2)cc1OCC,0.61,0.35
CC(C)(C)NC(=O)CSc1nnc(NC(=O)Cn2cnc3ccccc3c2=O)s1,0.125,1.55

# This is a random part of the collection; about 0.41% have a hit in one of these screens.
